GLP1R cytotox: cytotoxicity in counter-screen for GLP-1R inverse agonists; Potency, µM (series often up to 38.3 µM), without a hit: at the top dose activity change, negative = inhibition, actives largely listed as inhibitors; HEK293 cAMP-luciferase reporter cells, luminescence, 24 h; hit rate 0.13% among 410,000;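 note: loss of luciferase light is scored as toxicity; potency is the fitted concentration of half-maximal effect; % is set by controls: 0 for no effect and ±100 for the full control effect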
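Compound-treated cells are incubated 24 hr at 37 deg C under 5% CO2 after a 12 hour attachment period, then luciferase detection reagent is added and luminescence is measured following 12 min at room temperature; lowered signal indicates toxicity.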
PLK1 PBD block: PLK1 (human) polo-box domain binding inhibition. P53350. Plk1 PBD binding of FITC phosphopeptide, fluorescence polarization. Potency, µM, for inactives: max response, negative = inhibition, most hits filed as inhibitors. hit rate 2.8% among 360,000; note: potency is the fitted concentration of half-maximal effect; series mostly up to about 57 µM; % is set by controls: 0 for no effect and ±100 for the full control effect; nearly all actives have a fitted effect of over 65% in size
GLP1R inv ag: acts as inverse agonist at human GLP-1 receptor; hit rate 1.6% among 410,000; Potency, µM (titrated, usually from 38.3 µM), for the others: top-dose activity change, negative = inhibition, hits mostly inhibitors; AID 624417; P43220; HEK293 GLP-1R CRE-luciferase, luminescence, 24 h; GLP-1R form is constitutively active; note: potency is the fitted concentration of half-maximal effect; % is set by controls: 0 for no effect and ±100 for the full control effect; nearly all actives have a fitted effect of over 55% in size
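Readout was luciferase luminescence, measured 12 min after detection reagent at room temperature. Beforehand, GLP-1R reporter HEK293 cells had sat 12 h, then received compounds for 24 hr at 37 deg C.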
PI5P4Ka inh: inhibitors of human PI5P4K alpha. P48426. max response, %. hit rate 1.2% among 330,000. AID 652105. PI5P4Kalpha enzyme, ADP-Glo luminescence, 60 min; stronger effect = lower value; active = max response of -50% or lower; inconclusive = between -30% and -50%; inactive = -30% or higher; note: value at the top dose of about 77 µM; % is set by controls: 0 for no effect and ±100 for the full control effect
Target sequence (P48426 whole entry, looked up): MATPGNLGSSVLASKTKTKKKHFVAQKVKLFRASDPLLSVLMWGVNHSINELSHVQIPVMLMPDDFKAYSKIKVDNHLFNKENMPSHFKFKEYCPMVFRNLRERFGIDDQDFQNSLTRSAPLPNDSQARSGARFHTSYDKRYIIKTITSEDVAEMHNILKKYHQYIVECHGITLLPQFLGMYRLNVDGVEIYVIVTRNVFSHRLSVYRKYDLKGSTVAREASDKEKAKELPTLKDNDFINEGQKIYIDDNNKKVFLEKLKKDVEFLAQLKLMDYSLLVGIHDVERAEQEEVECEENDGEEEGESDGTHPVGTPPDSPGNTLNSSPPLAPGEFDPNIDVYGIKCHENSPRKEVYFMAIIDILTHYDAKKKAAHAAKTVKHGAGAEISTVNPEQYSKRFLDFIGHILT
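PI5P4Kalpha ADP-Glo assay; 5 microM ATP final; 60 min RT reaction; HEPES pH 7.4/EGTA/CHAPS, 5% DMSO; controls lacking substrate or enzyme; luminescent end-point.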
GLP1R ag: GLP-1 receptor (human) agonism; Potency, µM (doses to about 45.6 µM), for the others: top-dose activation, usual class: activators; AID 624172; HEK293 GLP-1R CRE-luciferase, luminescence, 4-6 h; cells express a hypersensitive GLP-1R form; P43220; hit rate 0.007% among 380,000; note: potency is the fitted concentration of half-maximal effect; % of control where 0% means no effect
EPAC1 antag: blocks human EPAC1 exchange factor | Potency, µM (series often up to 115 µM), for inactives: at the highest dose activity change, negative = inhibition, hits mostly inhibitors | hit rate 0.14% among 360,000 | O95398 | EPAC1 GEF assay, Rap1b-BODIPY-GDP exchange fluorescence;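 note: potency is the fitted concentration of half-maximal effect; plate controls were vehicle for no effect and positive control for full effect; nearly all actives have a fitted effect of over 50% in size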
EPAC1 ag: EPAC1 (human) agonism; O95398; EPAC1 agonist qHTS, biochemical assay; response scale: 100% = response to 6.5 mM cAMP; Potency, µM (titrated, usually from 154 µM), for the others: at the top dose activation, hits mostly activators; hit rate 0.073% among 360,000; AID 720707; note: potency is the fitted concentration of half-maximal effect; nearly all actives have a fitted effect of over 60% in size
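Read-out is the fluorescence drop as BODIPY-GDP leaves Rap1B (480 nm excitation, 540 nm emission), recorded every 5 minutes over 30 minutes. Reactions held 100 nM EPAC1, 250 nM Rap1B–BODIPY-GDP and 50 uM GDP, with 6.5 mM cAMP setting full activation.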
IL-2 act: activators of IL-2 | IL-2 activation reporter assay, cell-based qHTS; stimulated with anti-CD3/CD4/CD28 beads; in transgenic mouse T cells | activation, % (series mostly up to about 46 µM) | hit rate 0.065% among 360,000; in the data active = activation above about 50%; inconclusive = mostly about 30% to 49%; note: 0% is about no effect
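Using fluorescent plate cytometry, EGFP and DsRed are detected in transgenic mouse T cells stimulated 18 h at 37 degrees C with antibody-coated beads after 60 min compound pretreatment.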
Active calls of the source: *; ? = inconclusive; . = not tested or not shown; [ ] = dose if it differs, or a comment. Unless noted, calls come from the whole dose curve; as a rule, active = well fitted curve in the direction sought with a large enough effect; inconclusive = small, poorly fitted or top-dose-only effect, or another doubt; inactive = no such curve, though single readings can be large; an effect the other way counts as inactive or inconclusive. A portion of the library; count on the stated rates, not on these rows.

Codes – A = GLP1R cytotox; B = PLK1 PBD block; C = GLP1R inv ag; D = PI5P4Ka inh; E = GLP1R ag; F = EPAC1 antag; G = EPAC1 ag; H = IL-2 act
N/C(=N\OC(=O)c1ccco1)c1cccc(Br)c1
  A = 3%	B = -11%	C = 38%[activator]	D = .	E = 8%	F = -6%	G = 10%	H = -1.5
CCCCn1c(=O)c2ccccc2c2ccccc2c1=O
  A = 11%	B = -18%	C = ?	D = 7	E = 4%	F = 1%	G = 9%	H = 0.7
Cc1ccccc1N1CCN(CCCOc2ccc3c(C)cc(=O)oc3c2)CC1
  A = -32%	B = -9%	C = ?	D = 0	E = 1%	F = -9%	G = 14%	H = -2.1
Cc1nc2nc[nH]n2c(=O)c1CCC(=O)Nc1ccc(F)cc1
  A = 3%	B = .	C = 10%	D = .	E = 0%	F = .	G = .	H = .
CCOC(=O)N1CCN(C(=O)c2cc(Cl)c(Cl)cc2C(=O)O)CC1
  A = 3%	B = -7%	C = -3%	D = .	E = -2%	F = -14%	G = 7%	H = -1.6
C/C(=N\NC(=O)c1ccc(NS(=O)(=O)c2cccs2)cc1)c1ccc2ccccc2c1
  A = -1%[1.53 µM]	B = -4%	C = 8%	D = -63*	E = 1%	F = 16%	G = 18%	H = -0.2
Cc1ccc(CNC(=O)C(CC(C)C)N2Cc3ccccc3C2=O)cc1 (centres undefined)
  A = -10%	B = .	C = ?	D = .	E = .	F = .	G = .	H = .
Cc1[nH]n2c(=O)c3c(nc2c1-c1ccccc1)CCC3
  A = -2%	B = -10%	C = -5%	D = 5	E = -12%	F = -6%	G = 6%	H = 0.4
Cc1ccc2nc(COC(=O)c3cnccn3)cc(=O)n2c1
  A = 11%	B = -9%	C = 9%	D = -1	E = -6%	F = 10%	G = 0%	H = -0.3
O=C(O)c1ccc(COCC(F)(F)F)cc1
  A = 1%	B = -8%	C = 6%	D = 1	E = -9%	F = -1%	G = 3%	H = -2.3
C=CCc1ccc(OCC(O)CN2CCN(c3ccccc3OC)CC2)c(OC)c1 (centres undefined)
  A = 2%	B = 5%	C = ?	D = 3	E = -2%	F = -17%	G = -11%	H = -1.0
CCC(=O)N1C(C(=O)O)CSC1c1ccc(OC)cc1 (centres undefined)
  A = -25%	B = -8%	C = 12%	D = -2	E = 0%	F = 2%	G = 4%	H = -0.9
CCOC(=O)N1CCN(Cc2nc3cc(NC(C)=O)ccc3n2CC)CC1
  A = 19%	B = -2%	C = 37%[activator]	D = 0	E = -3%	F = 4%	G = -3%	H = -1.2

For reference, part of the list above:
Codes – A = GLP1R cytotox; B = PLK1 PBD block; C = GLP1R inv ag; D = PI5P4Ka inh; E = GLP1R ag; F = EPAC1 antag; G = EPAC1 ag; H = IL-2 act
N/C(=N\OC(=O)c1ccco1)c1cccc(Br)c1
  A = 3%	B = -11%	C = 38%[activator]	D = .	E = 8%	F = -6%	G = 10%	H = -1.5
CCCCn1c(=O)c2ccccc2c2ccccc2c1=O
  A = 11%	B = -18%	C = ?	D = 7	E = 4%	F = 1%	G = 9%	H = 0.7
Cc1ccccc1N1CCN(CCCOc2ccc3c(C)cc(=O)oc3c2)CC1
  A = -32%	B = -9%	C = ?	D = 0	E = 1%	F = -9%	G = 14%	H = -2.1
Cc1nc2nc[nH]n2c(=O)c1CCC(=O)Nc1ccc(F)cc1
  A = 3%	B = .	C = 10%	D = .	E = 0%	F = .	G = .	H = .
CCOC(=O)N1CCN(C(=O)c2cc(Cl)c(Cl)cc2C(=O)O)CC1
  A = 3%	B = -7%	C = -3%	D = .	E = -2%	F = -14%	G = 7%	H = -1.6
C/C(=N\NC(=O)c1ccc(NS(=O)(=O)c2cccs2)cc1)c1ccc2ccccc2c1
  A = -1%[1.53 µM]	B = -4%	C = 8%	D = -63*	E = 1%	F = 16%	G = 18%	H = -0.2
Cc1ccc(CNC(=O)C(CC(C)C)N2Cc3ccccc3C2=O)cc1 (centres undefined)
  A = -10%	B = .	C = ?	D = .	E = .	F = .	G = .	H = .
Cc1[nH]n2c(=O)c3c(nc2c1-c1ccccc1)CCC3
  A = -2%	B = -10%	C = -5%	D = 5	E = -12%	F = -6%	G = 6%	H = 0.4
Cc1ccc2nc(COC(=O)c3cnccn3)cc(=O)n2c1
  A = 11%	B = -9%	C = 9%	D = -1	E = -6%	F = 10%	G = 0%	H = -0.3
